# High-throughput results as filed in PubChem.
# RE007 growth inh: qHTS Assay for Inhibitors of the HIV-1 protein Vpr | S. pombe RE007 Vpr strain, BacTiter-Glo ATP luminescence, 24 h; control for the full effect not named in the record | Potency, µM (series often up to 92.2 µM), for the others: at the highest dose activity change, negative = less growth | 360,000 compounds, 0.21% hits | AID 651644, 2012; active = well fitted falling curve with a large enough effect; inconclusive = small, poorly fitted or top-dose-only effect; inactive = no such curve, though single readings can be large or run the other way;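 note: % is set by controls: 0 for no effect and ±100 for the full control effect; nearly all actives have a fitted effect of over 50% in size; the assay follows cell death caused by Vpr and the record does not say whether a fall means rescue or toxicity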
#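 Fission yeast strain RE007, carrying one chromosomally integrated HIV-1 vpr copy, was seeded at OD 0.01 in PMG+AL medium with 23 nL pinned compound. After 24 h at 30 °C and 99% humidity, viability was read by BacTiter-Glo luminescence.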
# SARS PLpro yeast: qHTS of Yeast-based Assay for SARS-CoV PLP. S. cerevisiae expressing SARS-CoV PLpro, growth rescue; control for the full effect not named in the record. Potency, µM (doses to about 32.9 µM), without a hit: at the highest dose activity, positive = growth rescue. 330,000 compounds, 0.19% hits; active means well fitted rising curve with a large enough effect; inconclusive means small, poorly fitted or top-dose-only effect; inactive means no such curve, though single readings can be large or run the other way; note: 0% is about no effect; nearly all actives have a fitted effect of over 55% in size; growth read by luminescence after 48 h
# StopGo reporter: High Throughput Screening for Foot and Mouth Disease Virus Antivirals; human cells with a luciferase reporter of 2A StopGo recoding; control for the full effect not named in the record; Potency, µM (highest dose often 57.9 µM), for the others: at the highest dose signal change, negative = less light; 410,000 compounds, 1.2% hits; AID 1159524, 2015; active = well fitted falling curve with a large enough effect; inconclusive = small, poorly fitted or top-dose-only effect; inactive = no such curve, though single readings can be large or run the other way; tested in HEK293T cells; note: % is set by controls: 0 for no effect and ±100 for the full control effect; nearly all actives have a fitted effect of over 45% in size; luciferase light after 4 h
# LASV entry inh: qHTS for Inhibitors of binding or entry into cells for Lassa Virus | Lassa virus pseudotype entry inhibition, cell reporter; control for the full effect not named in the record | Potency, µM (series often up to 37.9 µM), for the others: top-dose activity change, negative = inhibition, hits mostly inhibitors | 300,000 compounds, 1.2% hits | AID 540256, 2011; active means well fitted inhibition curve with a large enough effect; inconclusive means small, poorly fitted or top-dose-only effect, or effect the other way; inactive means flat fitted curve, though single readings scatter; tested in HEK293 cells; note: % is set by controls: 0 for no effect and ±100 for the full control effect; nearly all actives have a fitted effect of over 50% in size; luciferase read-out
# NS1 function inh: qHTS Assay for Inhibitors of Influenza NS1 Protein Function; AID 2326, 2010; 270,000 compounds, 0.4% hits; Potency, µM (doses to about 46.1 µM), for inactives: at the top dose activity, positive = more growth; S. cerevisiae slowed by influenza A NS1, growth recovery by OD600; active means well fitted rising curve with a large enough effect; inconclusive means small, poorly fitted or top-dose-only effect; inactive means no such curve, though single readings can be large or run the other way; note: nearly all actives have a fitted effect of over 50% in size
#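 Compounds were scored for reversing the slow growth caused by influenza A NS1 in S. cerevisiae, measured by optical density at 600 nm. Assay medium contained 2% galactose at pH 6.0; NS1-free yeast of the same strain were the positive control.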
# MARV entry inh: qHTS for inhibitors of binding or entry into cells for Marburg Virus; Marburg virus pseudotyped entry inhibition, cell reporter; control for the full effect not named in the record; about a third of the inactives were read at about 46 µM; Potency, µM (top dose mostly 37.8 µM), without a hit: at the top dose activity change, negative = inhibition, hits mostly inhibitors; 300,000 compounds, 1.8% hits; AID 540276, 2011; active = well fitted inhibition curve with a large enough effect; inconclusive = small, poorly fitted or top-dose-only effect, or effect the other way; inactive = flat fitted curve, though single readings scatter; tested in HEK293 cells; about a fifth of its hits are not listed in these tables; note: % is set by controls: 0 for no effect and ±100 for the full control effect; luciferase read-out
# Cruzain inh Det: qHTS Assay for Promiscuous and Specific Inhibitors of Cruzain (with detergent); Potency, µM, for the others: max response, negative = inhibition, actives largely listed as inhibitors; purified cruzain, Z-FR-AMC fluorescence, 0.01% Triton; Cruzipain (Trypanosoma cruzi), P25779; 200,000 compounds, 0.43% hits;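 note: plate controls were neutral wells for no effect and buffer without enzyme for full effect; nearly all actives have a fitted effect of over 40% in size; top concentration of the series not given in the record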
# Target sequence (P25779 123-467 limits assumed): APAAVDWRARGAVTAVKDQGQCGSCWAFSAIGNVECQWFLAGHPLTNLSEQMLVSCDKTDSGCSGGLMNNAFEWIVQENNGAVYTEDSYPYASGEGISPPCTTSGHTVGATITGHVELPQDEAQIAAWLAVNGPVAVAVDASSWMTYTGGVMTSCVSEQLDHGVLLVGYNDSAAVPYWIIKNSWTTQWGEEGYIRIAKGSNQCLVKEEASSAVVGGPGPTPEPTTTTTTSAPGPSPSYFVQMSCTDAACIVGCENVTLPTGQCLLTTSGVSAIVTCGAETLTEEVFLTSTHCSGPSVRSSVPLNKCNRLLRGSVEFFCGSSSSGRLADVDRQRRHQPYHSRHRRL
#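 Enzyme 1.5 nM, Z-FR-AMC 2 uM, NaOAc 100 mM pH 5.5, DTT 5 mM, Triton X-100 0.01%; 15 min RT compound preincubation; kinetic ex360/em450, 60 s delta.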
# Cruzain noTriton: qHTS Assay for Promiscuous and Specific Inhibitors of Cruzain (without detergent) | AID 1476, 2009 | 200,000 compounds, 2.3% hits | Cruzipain (Trypanosoma cruzi), P25779 | Potency, µM, inactives show max response, negative = inhibition, hits mostly inhibitors | purified cruzain, Z-FR-AMC fluorescence, no detergent;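 note: plate controls were enzyme without inhibitor for no effect and buffer without enzyme for full effect; nearly all actives have a fitted effect of over 40% in size; top concentration of the series not given in the record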
#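 Purified cruzain at 1.5 nM, pre-incubated 15 min with compound at room temperature in 100 mM sodium acetate pH 5.5, 5 mM DTT, 0.00005% Triton X-100. Reaction started with 2 uM Z-FR-AMC; AMC fluorescence increase over 60 s gives rate.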
# Starred values were filed as active, the others as inactive; u = inconclusive; x = not tested or not shown; & = joins results of further samples; [ ] = another dose, or the depositor's remark. Unless noted, calls come from the whole dose curve; as a rule, active = well fitted curve in the direction sought with a large enough effect; inconclusive = small, poorly fitted or top-dose-only effect, or another doubt; inactive = no such curve, though single readings can be large; an effect the other way counts as inactive or inconclusive. Potency is the fitted concentration of half-maximal effect.
# Sequence of screens: NS1 function inh, LASV entry inh, StopGo reporter, MARV entry inh, Cruzain inh Det, RE007 growth inh, SARS PLpro yeast, Cruzain noTriton
- CSc1nc2c(cnn2-c2ccc(C)c(C)c2)c(=O)[nH]1
  5%, x, -8%, x, 5.1%, 1%, 1%, -7%
- O=C(Cc1ccccc1)NC1(Cc2ccc(O)cc2)CCCCC1
  -1%, 1%[46.1 µM], 15%, -20%[46.1 µM], x, -14%, 1%, x
- O=C(Nc1cn(-c2ccccc2)nc1-c1cccs1)c1ccco1
  -15%, 3%, -24%, u, -11%, -10%, 2%, -10%
- COc1ccc(-n2c(=S)[nH]c3c(oc4ccccc43)c2=O)cc1
  u, 2%, 30%, 7%, -17%, x, 3%, -13%
- COc1ccc(OC(=O)c2nc(SCc3ccccc3F)ncc2Cl)cc1
  x, 26%[46.1 µM], -15%, u, -2.0%, x, x, u
- Cc1nn(-c2ccccn2)c2c1-c1nc(N)ncc1CC2
  -3%, -16%, 54%[activator], -31%[46.1 µM], -7.6%, 4%, 5%, -6%
- CCC1=C(C(=O)OC)C(c2cc(OC)ccc2OC)C(C#N)=C(N)O1 (stereo not given)
  8%, 1%, -9%, -9%, 0.6%, -7%, -3%, -6%
- CCOC(=O)Nc1nnc(-c2ccc(OC)cc2)s1
  -8%, -2%, x, u, 3.0%, 13%, 1%, 12%
- CN(C)CCCNC(=O)CC(c1ccccc1)c1ccccc1O (stereo not given)
  -5%, -3%, 0%, 5%, 2.2%, -7%, x, 2%
- CCN(CC)CCNCC(=O)Nc1ccc(Oc2ccccc2)cc1
  -5%, x, -22%, x, x, 7%, -6%, x
- CCN(CC)c1ccc(/C=C2\C(=O)NC(=O)N(CC3CCCO3)C2=O)cc1 (stereo not given)
  -2%, -5%, 2%, 6%, -3.0%, -17%, 18%, 4%
- Cc1ccc(C)c(NC(=O)CN2C(=O)CCc3cc(S(=O)(=O)N4CCCCC4)ccc32)c1
  x, 7%[46.1 µM], 18%, x, -2.6%, x, x, 15%
- COc1cc2c(cc1NCc1ccccn1)oc1ccccc12
  u, 15%, 71%[activator], 19%[46.1 µM], -11%, -23%, -17%, -26%
- O=C(Nc1nnc(N2CCCCCC2)s1)Nc1ccccc1C(F)(F)F
  x, x, 28%, 0%[46.1 µM], -1.1%, x, x, 2%
- Cc1cc(C)c2sc(N)nc2c1
  x, 1%[46.1 µM], 26%, 0%[46.1 µM], x, -15%, -2%, x
- Cc1nnc(SCc2ccc(Cl)cc2)n1CC1CCCO1 (stereo not given)
  7%, 5%, -11%, 0%, -1.4%, -8%, 1%, -6%
- COc1ccc(NC(=O)Nc2ccccc2)cc1S(=O)(=O)N1CCCCC1
  x, u, u, -19%[46.1 µM], x, 12%, 0%, x
- COc1cc(/C=N/N=C(\N)c2nonc2N)cc(OC)c1O
  0%, 1%, 31%[activator], 17%[46.1 µM], x, 5%, -2%, x
- COc1ccc(C(=O)C2CCCN(Cc3cnc(N4CCOCC4)s3)C2)cc1F (stereo not given)
  0%, -26%, u, u, x, 9%, -1%, x
- Cc1nc(CC(=O)Nc2ccc(N(C)C)cc2)cs1
  x, u, 29%, u, -0.7%, x, x, -2%
- CC1CCCN(S(=O)(=O)c2ccc(N(C(=O)c3cnccn3)C(C(=O)NC3CCCCC3)c3cccs3)cc2)C1 (stereo not given)
  -17%, u, 8%, -18%, -3.4%, -8%, 0%, u
- CC(C)c1ccc(NC(=O)CSC2=Nc3ccccc3C3=NC(CC(=O)NCCc4ccccc4)C(=O)N23)cc1 (stereo not given)
  x, -29%[46.1 µM], -14%, x, -8.0%, x, x, 2%
- Oc1ccc(CN2CCCCC2)nc1-c1ccccc1
  -1%, 4%, -20%, 2%, 2.1%, 7%, 4%, -10%
- CC(C)OCCCn1c(=O)c2ccccc2n2c(CCC(=O)NCc3ccccn3)nnc12
  -1%, x, -2%, x, x, -17%, -3%, x
- COc1ccc(NC(=O)CSc2nc3[nH]ncc3c(=O)n2-c2ccccc2OC)cc1OC
  -27%, 13%, -6%, -4%, -3.4%, 6%, -3%, 14%
- Cn1ncc(Br)c1C(=O)NC1CCCCCCC1
  -21%, -19%[46.1 µM], -10%, -8%[46.1 µM], x, -3%, 2%, x
- CC(C)(C)c1ccc(COn2c(=O)c(-c3ccco3)[n+]([O-])c3ccccc32)cc1
  1%, -7%, -4%, u, 3.0%, -8%[3.69 µM], 1%, -1%
- CCc1cccc2c(C(=O)COC(=O)c3cccc(S(=O)(=O)N(C)C4CCCCC4)c3)c[nH]c12
  22%, u, -7%, 5%, -1.0%, -2%, -5%, u
- CCOC(=O)C1CCCCN1Cc1cc(OC)ccc1OC (stereo not given)
  5%, -8%, x, 18%, 2.3%, -4%, 3%, -2%
- CCCCC(=O)Nc1nnc(S(=O)(=O)N2CCCc3ccccc32)s1
  24%, x, -24%, x, x, 7%, 5%, x
- Cc1onc(-c2ccccc2)c1C(=O)NC(=S)NNC(=O)c1cccnc1
  2%, -17%, -3%, 5%, -4.8%, 12%, 5%, 0%
- O=C(CCC1CCCN(C(=O)c2ccc3cc[nH]c3c2)C1)NCc1ccc(F)c(F)c1 (stereo not given)
  0%, u, 15%, u, x, 7%, 0%, x
- Nc1c(-c2ccccc2)nnn1Cc1ccccc1
  x, -13%[46.1 µM], 34%[activator], u, x, 3%, x, x
- COc1cc2cc(CN(CCO)S(=O)(=O)c3ccccc3Cl)c(=O)[nH]c2cc1OC
  -14%, -15%, -5%, -20%, -1.9%, 5%, -1%, 3%
- Cc1cccc(CNS(=O)(=O)c2ccc(-c3ccc(=O)[nH]n3)s2)c1
  4%, x, -2%, x, x, -4%, -2%, x
- CC(=O)c1cc(-c2ccccc2)n(CC(=O)Nc2ccc(C)c(C)c2)c1C
  0%, u, u, -7%&-7%, 0.8%&-2.0%, 1%, 4%, -8%&-2%
- CCc1cccc(C)c1NC(=O)Cn1ncc2c3ccccc3n(Cc3ccccc3)c2c1=O
  x, 20%[46.1 µM], -1%, u, -5.4%, x, x, 1%
- Nc1ccc2nc(-c3ccccn3)[nH]c2c1
  7%, u, -15%, u, -27%, -18%, -36%, -19%
- COc1ccc(C(NC(=O)C2CCCCC2)c2c(O)ccc3ccccc23)cc1 (stereo not given)
  28%, -18%, -4%, u, -4.5%, -7%, 2%, u
- Cc1ccccc1OCC(=O)NCC(c1ccc(Cl)cc1)N1CCCCC1 (stereo not given)
  x, 14%[46.1 µM], -24%, x, -1.4%, x, x, -2%
- CCOC(=O)CSc1nnc(Cn2nnc(-c3ccccc3)n2)n1C
  -16%, -1%, 11%, 8%, -2.3%, 3%, -2%, 1%
- CCN(CC)c1ccc(NC(=O)COC(=O)Cc2ccsc2)cc1
  x, 6%, -10%, 4%, x, -19%, 1%, x
- CCOc1cc2[nH]c(=S)n(CCc3ccc(OC)c(OC)c3)c(=O)c2cc1OCC
  17%, -1%, 1%, 4%, 4.8%, 0%[3.69 µM], 6%, u
- O=C(Cn1c(=O)cnc2ccccc21)N1CCN(S(=O)(=O)c2ccccc2Br)CC1
  x, -8%, -10%, -25%, x, 3%, -2%, x
- Cc1ccc(-n2c(C)cc(C=C(C#N)C#N)c2C)cc1
  -3%, 0%, 0%, -15%, -6.4%, 8%, -2%, 0%
- Cc1ccc(/C=C(\C#N)C(=O)Nc2cc(C)ccc2C)cc1
  x, 0%[46.1 µM], -24%, u, -0.8%, x, x, -3%
- CSCCC(NC(=O)c1ccccc1Br)C(=O)NCC(c1ccco1)N1CCCCC1 (stereo not given)
  x, -6%, -22%, -2%, x, -28%, -4%, x
- COc1ccc(/C=C(\C#N)C(=O)OCC(=O)Nc2ccc(C(C)(C)C)cc2)cc1
  -9%, u, 33%[activator], -8%, -7.7%, 8%, -1%, -20%
- CN(C)[C@@H](CO)c1nnc([C@H](CCC(=O)O)NC(=O)C2CCNCC2)o1
  2%, x, -6%, x, x, 1%, 1%, x
- O=C(Nc1ccc(Cl)cc1)Nc1csc([N+](=O)[O-])c1
  -105%, u, 0%, u, x, -12%, -8%, x
- CC(C)(C)c1cc(NC(=O)COC(=O)c2nccnc2N)n(-c2ccccc2)n1
  -6%, 4%, 3%, 4%, x, 13%, -2%, x
- O=C(Nc1cccc([N+](=O)[O-])c1)Nc1ccc2c(c1)CCC2
  0%, u, -27%, u, x, 12%, -2%, x
- COc1ccc(Cn2c(CCCO)nc3ccccc32)cc1OC
  2%, 0%, -21%, -16%&3%, -0.3%, -1%, -8%, 14%
- O=C(NN=C1CCCCCC1)NC1CCCCC1
  6%, 3%, 75%[activator], 23%, -0.6%, -4%, 11%, 7%
- Cc1nn2c(N3CCN(c4ccccn4)CC3)cc(C(C)C)nc2c1-c1ccccc1
  -41%, -1%, 22%, -15%&-15%, -15%, -3%, -9%, -8%
- CC(C)c1ccc(C2=CC(c3cccc(Cl)c3)n3c(nc4ccccc43)N2)cc1 (stereo not given)
  x, -17%[46.1 µM], -75%, x, -1.5%, x, x, -6%
- O=[N+]([O-])c1ccc(OCC(O)CNCCNc2nccc(C(F)(F)F)n2)cc1 (stereo not given)
  4%, x, 10%, x, x, -3%, 0%, x
- C=CCC(CC(O)COCCC)C(=O)NNC(=S)Nc1ccccc1 (stereo not given)
  1%, 29%[46.1 µM], 62%[activator], u, x, -5%, -1%, x
- CC(C)COC(=O)n1c(SCC(=O)N(C)C)nc2ccccc21
  -49%, 1%, -5%, u, -1.9%, -14%, 12%, u
- COc1ccccc1N1C(=NC(=O)C2CCCCC2)SC2CS(=O)(=O)CC21 (stereo not given)
  -6%, 23%[46.1 µM], -11%, -20%[46.1 µM], x, 9%, -3%, x
